BJeLR lethal: BJeLR cell viability loss; BJeLR (HRASV12) viability, CellTiter-Glo ATP luminescence, 48 h; reference of the scale not given here; inhibition, % (no concentration beside the values); 300,000 compounds, 0.17% hits; AID 1554;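 active = replicate mean above 50%; inconclusive = above 50% but judged a plate artefact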;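 also: 50 nL library stock added to about 25 µL; numbers are from one replicate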
Mtb hypoxia inh: inhibitors of hypoxia-regulated fluorescent reporter in Mycobacterium tuberculosis; fluorescence inhibition, % (no concentration beside the values); M. tuberculosis hypoxia-regulated fluorescent reporter, fluorescence; 300,000 compounds, 0.1% hits; AID 1159583;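 active = 35 to 45% if threefold the growth effect, above 45% if 1.5-fold the growth effect; inactive = the rest, general growth blockers included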;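 also: wells of about 50 µL received 100 nL stock; 0% = vehicle wells and 100% = reference inhibitor wells; whole bacteria with a GFP reporter of the hypoxia response; strong numbers were not always called active; many hits fall short of the cut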
Bead autofluor: compound fluorescence in toxin protease inhibitor counterscreen. AID 624483. compound autofluorescence counterscreen, microsphere flow cytometry; stronger effect = higher value. 360,000 compounds, 3.1% hits. fluorescence intensity (concentration not given with the values);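 active = at least 3 SD above the mean of all compounds, about 16000 in these data; inconclusive = too few beads counted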;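 also: 100 nL of 1 mM stock went into each well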
Sa ugtP lethal: growth inhibition of S. aureus ugtP deletion strain. S. aureus RN4220 ugtP deletion, OD600 growth, 16 h; some inactives read as strong as hits. growth inhibition, % (no concentration beside the values). 330,000 compounds, 0.54% hits;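 active = z-score under -3 and OD600 up to 0.15 on both plates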;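 also: plate controls were untreated wells for no effect and antibiotic for full effect; wells of about 80 µL received 100 nL stock; the first replicate is given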
Sa RN4220 lethal: kills Staphylococcus aureus RN4220; S. aureus RN4220 growth, OD600, 16 h; inhibition, % (test concentration not listed); 330,000 compounds, 0.33% hits;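 active = z-score of -3 or lower and OD600 up to 0.18 on both plates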;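 also: plate controls were untreated cells for no effect and reference antibiotic for full effect; stock transfer was 100 nL into about 80 µL; one replicate is shown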
PrP UTR inh: inhibition of PrP 5' UTR reporter expression. 340,000 compounds, 0.35% hits. inhibition, % (no concentration beside the values). AID 488862. cell-based PrP 5' UTR mRNA reporter, plate reader;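 active = every replicate at 50% or more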;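 also: 0 = median of the neutral control wells; tested in H4 reporter cells; numbers are from one replicate; inactives centre near -14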
Mtb hypoxia inh growth: further read-out of Mtb hypoxia inh, marked with its call; growth inhibition, %; measured here: M. tuberculosis growth (absorbance);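 0% = vehicle and 100% = reference antibiotic; read after six days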
* hit, by the source's call; ? = inconclusive; / = no result given.

SMILES	BJeLR lethal	Mtb hypoxia inh	Mtb hypoxia inh growth	Bead autofluor	Sa ugtP lethal	Sa RN4220 lethal	PrP UTR inh
COc1ccc(CCNc2nc(-c3cccnc3)nc3ccccc23)cc1OC	0	13	-4	5643	-9	0.0	-3
CC(C)(C)c1ccc(Oc2ccc(NC(=O)c3ccco3)cn2)cc1	4	8	10	4572	44	-7.1	9
O=C(NC(Cc1ccccc1)C(=O)O)/C(=C\c1ccco1)NC(=O)c1ccccc1 (stereo not given)	17	4	11	2384	8	5.8	-13
Cn1ccnc1SCC(=O)N1CCN(S(=O)(=O)c2ccccc2)CC1	3	15	8	4595	10	10	-8
Cc1cc(C)c(C(N)=O)c(Nc2cccc3ccccc23)n1	-9	/	/	4295	-2	0.7	-28
COc1ccc(S(=O)(=O)NCCc2cc3ccc(C)c(C)c3[nH]c2=O)cc1	8	0	8	3559	3	6.9	3
COc1ccc(CCC(=O)NCC23CC4CC(CC(C4)C2)C3)cc1	-4	1	6	3970	6	3.3	-12
CCOC(=O)c1c(-c2ccc(OC)cc2)csc1NC(=O)CSc1ncnc2sccc12	9	6	1	2150	-11	-7.1	-15
C[C@H](CO)N1C[C@H](C)[C@@H](CN(C)Cc2ccncc2)Oc2c(NS(=O)(=O)c3ccc(Cl)cc3)cccc2C1=O	/	-3	5	3885	2	-1.3	-9
Cc1csc(NC(=O)c2ccc(C)c(S(=O)(=O)N3CCCCC3)c2)n1	-1	5	9	9038	16	-1.9	35
Clc1ccc(-c2nnc(-c3cccc4ccccc34)o2)cc1Cl	-1	5	-2	/	5	2.9	/
CCC(=O)OC1(C)C(=O)C=C2C=C(C3CC3)OC=C2C1=O (stereo not given)	15	3	-9	4021	7	8.4	4
CSc1nnc2c3cc(C)ccc3n(Cc3ccccc3)c2n1	2	/	/	2173	-13	7.7	-2
Cc1ccc(C(=O)NC(NCc2ccccc2)C(Cl)(Cl)Cl)cc1 (stereo not given)	-7	-2	1	9411	9	9.1	-14
Cc1ccccc1C1N(c2nccs2)C(=O)C2CCCN21 (stereo not given)	4	-14	0	2766	12	3.4	-4
N#C/C(C(=S)Nc1ccccc1)=C1/NN=C(N2CCOCC2)N1c1ccccc1	1	0	12	2547	6	1.5	-11
Cc1ccc(C2CC(c3ccccc3)=NN2C(=O)CSc2nnc(-c3ccc(Cl)cc3)o2)o1 (stereo not given)	23	-9	7	?	-18	20	-6
Cc1ccc(NC(=O)N/C=C/c2ccco2)cc1	-2	-5	-11	22171*	-6	-3.4	-26
CN(CC(=O)Nc1ccc(F)c(F)c1F)C(=O)CN1C(=O)C2CCCCC2C1=O (stereo not given)	-8	10	3	6609	-2	4.7	-9
O=C(Cc1ccc(NS(=O)(=O)c2cccc(C(F)(F)F)c2)cc1)NCCN1CCOCC1	-4	5	9	/	1	2.8	-12
CC(=O)NN1C(=O)/C(=C\c2ccccc2)SC1=S	-20	/	/	2714	/	/	-13
CCCCCCc1ccc(OCC(=O)OC)cc1OCC(=O)OC	-6	4	10	10653	5	5.4	-17
CN1/C(=C\C(=O)COC(=O)c2ccc([N+](=O)[O-])o2)C(C)(C)c2ccccc21	0	-6	13	4063	9	13	-4
N#CC1=C(N)Oc2n[nH]c(-c3cccs3)c2C1c1cccs1 (stereo not given)	-19	14	6	4621	-6	10	-7
Nc1nc(Nc2ccccc2F)sc1C(=O)c1ccccc1	18	-2	6	3585	-3	11	-60
Cn1c(CCCOc2ccc(Cl)cc2Cl)nnc1SCC(=O)Nc1cccc(F)c1	-6	0	3	7655	-17	5.8	-10
O=C(CN1CCN(c2ccc(O)cc2)CC1)Nc1ccc2c(c1)OCCO2	5	7	2	4285	-3	4.6	-25
CC1=NN(c2ccccc2)C(=O)C1c1ccccc1 (stereo not given)	-3	-3	-2	2056	0	-1.6	-7
c1ccc(-c2nc3ccccn3c2NC2CCCC2)nc1	2	3	2	4372	-29	7.3	-16
Cn1nc(C(=O)NCc2ccc(F)cc2)cc1C(=O)NCc1ccc(F)cc1	/	4	11	6614	-1	0.0	-5
CCc1ccc(/C(C)=N/NC(=O)c2ccccn2)cc1	-6	/	/	4280	/	/	-56
CCOc1ccc(C(=O)Nc2ccc(N3CCN(C)CC3)cc2)cc1Br	-1	/	/	4156	80	-5.3	-31
COCCNC(=O)C1CC(=O)N(CCc2ccccc2)C1 (stereo not given)	0	6	9	3021	-1	2.7	-8
Oc1ccccc1C=N[n+]1ccccc1	/	-16	13	/	-5	-1.9	/
Cc1ccc(N(Cc2cc(=O)[nH]c3ccccc23)C(=O)CCl)c(C)c1	-11	17	12	3661	-9	7.1	-3
CSc1ccc(COC(=O)c2cc([N+](=O)[O-])ccc2N2CCOCC2)cc1	56*	9	8	5358	-3	6.5	72*
COc1cccc(/C=C/C(=O)c2ccc(C)c([N+](=O)[O-])c2)c1	-2	10	9	8624	15	6.6	-22
COc1ccc(NC(=O)CSCC(=O)N2CCN(c3cccc(C(F)(F)F)c3)CC2)cc1	/	0	-4	7484	13	1.9	-28
Cc1ccccc1C(=O)c1cccn1CC(=O)NC(C)CCc1ccccc1 (stereo not given)	-6	1	4	5657	7	-4.5	-8
O=C(c1ccc(CS(=O)Cc2ccccc2Cl)o1)N1CCN(c2cccc(Cl)c2)CC1 (stereo not given)	-1	-1	1	4817	2	4.5	-23

Already shown: an excerpt of the list.
SMILES	BJeLR lethal	Mtb hypoxia inh	Mtb hypoxia inh growth	Bead autofluor	Sa ugtP lethal	Sa RN4220 lethal	PrP UTR inh
COc1ccc(CCNc2nc(-c3cccnc3)nc3ccccc23)cc1OC	0	13	-4	5643	-9	0.0	-3
CC(C)(C)c1ccc(Oc2ccc(NC(=O)c3ccco3)cn2)cc1	4	8	10	4572	44	-7.1	9
O=C(NC(Cc1ccccc1)C(=O)O)/C(=C\c1ccco1)NC(=O)c1ccccc1 (stereo not given)	17	4	11	2384	8	5.8	-13
Cn1ccnc1SCC(=O)N1CCN(S(=O)(=O)c2ccccc2)CC1	3	15	8	4595	10	10	-8
Cc1cc(C)c(C(N)=O)c(Nc2cccc3ccccc23)n1	-9	/	/	4295	-2	0.7	-28
COc1ccc(S(=O)(=O)NCCc2cc3ccc(C)c(C)c3[nH]c2=O)cc1	8	0	8	3559	3	6.9	3
COc1ccc(CCC(=O)NCC23CC4CC(CC(C4)C2)C3)cc1	-4	1	6	3970	6	3.3	-12
CCOC(=O)c1c(-c2ccc(OC)cc2)csc1NC(=O)CSc1ncnc2sccc12	9	6	1	2150	-11	-7.1	-15
C[C@H](CO)N1C[C@H](C)[C@@H](CN(C)Cc2ccncc2)Oc2c(NS(=O)(=O)c3ccc(Cl)cc3)cccc2C1=O	/	-3	5	3885	2	-1.3	-9
Cc1csc(NC(=O)c2ccc(C)c(S(=O)(=O)N3CCCCC3)c2)n1	-1	5	9	9038	16	-1.9	35
Clc1ccc(-c2nnc(-c3cccc4ccccc34)o2)cc1Cl	-1	5	-2	/	5	2.9	/
CCC(=O)OC1(C)C(=O)C=C2C=C(C3CC3)OC=C2C1=O (stereo not given)	15	3	-9	4021	7	8.4	4
CSc1nnc2c3cc(C)ccc3n(Cc3ccccc3)c2n1	2	/	/	2173	-13	7.7	-2

(further entries)
SMILES	BJeLR lethal	Mtb hypoxia inh	Mtb hypoxia inh growth	Bead autofluor	Sa ugtP lethal	Sa RN4220 lethal	PrP UTR inh
O=C1OC(CO)CN1Cc1ccccc1 (stereo not given)	11	10	1	3877	17	3.8	/
CCOC(=O)c1ccc(N/C=C/C(=O)c2ccccc2)cc1	2	-13	-15	2573	-8	0.3	-63
CC(C)(C)NCCCCOc1ccccc1F	-9	8	-3	9296	3	-1.1	-10
O=C(CN1CCSCC1)N/N=C/c1ccc(F)cc1F	-7	/	/	23749*	/	/	-19
O=C(Nc1ccc(N2CCOCC2)c(Cl)c1)c1ccccc1Cl	0	11	1	4273	-5	0.4	-43
C=CCn1c(=O)c(C(=O)NCc2ccc(Cl)cc2)c(O)c2ccccc21	-1	5	-10	3056	50	11	-9
COc1cc(C(=O)Nc2ccc(NC(=O)C(C)C)nc2)cc(OC)c1OC	-12	/	/	4554	6	-2.9	-10
CCc1cc2cc(C)cc(C)c2nc1SCC(=O)N1CCN(C(=O)c2ccco2)CC1	/	/	/	2178	-4	6.8	-12
C(=N\n1cnnc1)/c1cccc(Oc2ccccc2)c1	7	/	/	22913*	/	/	-1
Cc1ccc(CN2CC(C(=O)Nc3ccncc3)CC2=O)cc1 (stereo not given)	9	-1	-8	5201	6	-0.7	-18
FC(F)(F)c1cnc2c(c1)Nc1ccccc1S2	-2	4	4	3291	-18	2.4	-19
O=C(CCN1CCc2ccccc2C1)Nc1cccc(F)c1	0	1	1	4199	-7	6.0	-9
CCOC(=O)Cn1c(SC)nc2sc3c(c2c1=O)CC(C)(C)OC3	-18	8	8	6865	12	6.7	-20
Cc1ccc(CN2CCCN(Cc3ccc(F)cc3Cl)S2(=O)=O)cc1	-7	-8	8	3667	6	1.9	-5
COc1ccc(/C=C/C(=O)Oc2cccc(/C=N/NC(=O)c3cccc(F)c3)c2)cc1	0	/	/	8762	/	/	-78
CCCCn1c(N)c(N(CC(C)C)C(=O)c2c(-c3ccccc3)noc2C)c(=O)[nH]c1=O	/	8	2	8840	0	3.2	-7
CC1CC(C)CN(C(=O)CN2C(=O)NC(C)(C)C2=O)C1 (stereo not given)	3	9	-1	5900	2	-0.1	-20
CCC/C(=N\NC(=O)C1CC1)c1ccc(Br)cc1	5	/	/	4344	/	/	-12
CC/C(CC(=O)C(F)(F)F)=N\NC(=O)/C(C#N)=C/N(C)C	8	/	/	4553	/	/	-22
O=C(COC(=O)C1=COCCO1)Nc1ncc(C(F)(F)F)cc1Cl	3	4	3	3183	-3	2.8	7
O=C1NC(=O)C2(CCCc3ccccc32)N1 (stereo not given)	0	9	5	4925	-2	-0.2	-8
C/C(=N\NC(=O)c1nn(C)c(C)c1Br)c1cccc(NC(=O)c2ccc(F)cc2)c1	7	/	/	8095	/	/	-75
Cc1ccc(C2/C(=C(/O)c3ccc4c(c3)CC(C)O4)C(=O)C(=O)N2CCCn2ccnc2)cc1 (stereo not given)	4	-11	1	/	-7	-3.6	-21
COc1cccc(N(C(=O)CNC(=O)c2ccco2)C(C(=O)NC2CCCC2)c2cccnc2)c1 (stereo not given)	-2	-6	7	3930	4	-2.0	-1
CC(C)Cn1c(N)c(C(=O)COC(=O)c2c(F)cccc2F)c(=O)n(C)c1=O	8	6	5	4214	4	1.8	-5
O=C(NCC1CC1)c1cc(-c2ccccc2)nn1CC1CC(c2cccc([N+](=O)[O-])c2)=NO1 (stereo not given)	-6	-10	3	2838	-1	-0.9	-24
COc1ccccc1N1CCN(c2ccc([N+](=O)[O-])nc2)CC1	1	7	2	4023	19	4.7	-35
O=C(CCC(=O)N1CCOc2ccccc21)N1CCCCC1	0	5	1	4112	5	3.8	2
COc1ccc(OC)c(S(=O)(=O)NCCc2cn3ccsc3n2)c1	-2	8	10	6433	-6	-7.4	-4
c1cc2[nH]snc2c2nc(C3CC3)nc12	-3	-8	6	?	-1	6.0	4
Cc1ccc(S(=O)(=O)N2CCCOC2)cc1	-5	7	-1	11068	9	3.3	-24
Cc1ccc2c(c1)N(CC(=O)NC1CCCCC1C)C(=O)CO2 (stereo not given)	2	17	4	8843	-9	4.2	-33
CCOc1cccc2c1OC1(C)CC2NC(=O)N1c1cccc(C(=O)NCc2ccccn2)c1 (stereo not given)	-8	2	5	5726	6	0.9	-14
C=CCNC(=S)Nc1nc2c(cc1C(=O)OCC)COC(C)(C)C2	-25	10	18	4276	5	6.2	-13
COc1cc(N2CCOCC2)ccc1/C=C1\C(=O)NC(=O)N(Cc2cccs2)C1=O	2	15	3	4671	-65	16	-8
O=c1[nH]cnc2ccsc12	6	11	7	4046	5	6.9	-19
Cc1cc(Cn2nc(-c3ccccc3C)cc2C(=O)O)on1	/	14	11	2809	0	7.0	-9
